PINK1 modulator: changes PINK1 expression. AID 624263. Potency, µM (series often up to 76.6 µM), for the others: at the top dose activation (PINK1 increase), most hits filed as activators. PINK1 immunofluorescence, high-content cytometry, 24 h. hit rate 0.2% among 410,000; active = well fitted activation curve with a large enough effect; inconclusive = small, poorly fitted or top-dose-only effect; inactive = flat fitted curve, though single readings scatter; cell line not stated here;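 further: potency means the concentration at half of the fitted maximal effect; % of control where 0% means no effect; nearly all actives have a fitted effect of over 65% in size; a mitochondrial uncoupler was the plate control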
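Measures PINK1 amount and localization on or inside mitochondria by immunofluorescence. Stable cells get compounds at 5 concentrations for 24 hours before fixation and staining; CCCP controls included.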
TRPML1 agonist: activates the human TRPML1 channel; hit rate 0.12% among 410,000; Q9GZU1; AID 624414; activation, % (concentration not given with the values); TRPML1-expressing cells, Ca2+ dye fluorescence, FDSS; host cell line not named in the record; reference of the full effect not given here; in the data active = activation above about 50%; inconclusive = about 30% to 50%; inactive = below about 30%; further: 0% is about no effect; the text of the record puts the active cut at 80%
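Tetracycline-induced TRPML1-DL cells are seeded and incubated overnight before loading with a no-wash Ca2+ dye and quencher. Agonist activity is taken from the 110 s fluorescence read following compound pin-transfer on an FDSS, before EC80 54-4 challenge.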
TRPML1 blocker: blocks the human TRPML1 channel; TRPML1-inducible cells, Ca2+ dye fluorescence, FDSS; hits give low values; inhibition of EC80 agonist-evoked calcium signal; hit rate 0.02% among 390,000; activity change, negative = inhibition, % (no concentration beside the values); AID 624415; Q9GZU1; in the data active means activity change below about -50%; inconclusive means about -30% to -50%; inactive means above about -30%;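 further: stimulus is agonist 54-4 at its EC80 concentration; on the % scale 0 is the no-effect control and ±100 the full control effect; compound concentration not given in the record; the text of the record puts the active cut at -80%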
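Calcium fluorescence in TRPML1-DL cells induced overnight with Tet: a 110 s read after compound pin addition, then a 110 s antagonist read after challenge with 54-4 at 4 uM final (EC80).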
D2 potentiator: human D2 receptor positive allosteric modulation. hit rate 0.23% among 360,000. DiscoveRx D2 beta-arrestin cells, luminescence, 90 min; 100% = 57 uM dopamine signal. potentiation, % (concentration not given with the values); active = potentiation of 50% or more; inconclusive = 30% to 50%; inactive = 30% or less;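 further: compound concentration not given in the record; tested on top of an EC20 dose of dopamine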
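PathHunter beta-arrestin assay in DiscoveRx D2 cells. Compounds were added with an EC20 of dopamine (50 nM final) for 90 min at 37 deg C. Luminescence was read 1 h after detection reagent, with 57 uM dopamine as the EC100 control.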
D2 agonist: activates the human D2 dopamine receptor. DiscoveRx PathHunter D2 beta-arrestin, luminescence, 90 min; 100% = 57 uM dopamine signal. activation, % (test concentration not listed). hit rate 0.084% among 360,000. AID 624465; in the data active = activation above about 40%; inconclusive = about 15% to 40%; inactive = below about 15%; further: compound concentration not given in the record; the text of the record calls up to 30% inactive
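DiscoveRx PathHunter D2 beta-arrestin cells (2,100/well) attached overnight, then compound-stimulated 90 min at 37 C in HBSS/10 mM HEPES/0.1% Tween-20 buffer; beta-galactosidase complementation read by luminescence after 1 h at ambient temperature. Dopamine 57 uM final (EC100) as control.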
Six1-Eya2 blk: Six1/Eya2 interaction inhibition; Q15475+O00167; AlphaScreen GST-Six1/His-Eya2 binding, biochemical; hits give low values; control for the full effect not named in the record; activity change, % (concentration not given with the values); hit rate 0.56% among 360,000; in the data active = activity change below about -65%; inconclusive = about -30% to -65%; inactive = above about -30%; further: on the % scale 0 is the no-effect control and ±100 the full control effect
Target sequence (O00167 whole entry, looked up): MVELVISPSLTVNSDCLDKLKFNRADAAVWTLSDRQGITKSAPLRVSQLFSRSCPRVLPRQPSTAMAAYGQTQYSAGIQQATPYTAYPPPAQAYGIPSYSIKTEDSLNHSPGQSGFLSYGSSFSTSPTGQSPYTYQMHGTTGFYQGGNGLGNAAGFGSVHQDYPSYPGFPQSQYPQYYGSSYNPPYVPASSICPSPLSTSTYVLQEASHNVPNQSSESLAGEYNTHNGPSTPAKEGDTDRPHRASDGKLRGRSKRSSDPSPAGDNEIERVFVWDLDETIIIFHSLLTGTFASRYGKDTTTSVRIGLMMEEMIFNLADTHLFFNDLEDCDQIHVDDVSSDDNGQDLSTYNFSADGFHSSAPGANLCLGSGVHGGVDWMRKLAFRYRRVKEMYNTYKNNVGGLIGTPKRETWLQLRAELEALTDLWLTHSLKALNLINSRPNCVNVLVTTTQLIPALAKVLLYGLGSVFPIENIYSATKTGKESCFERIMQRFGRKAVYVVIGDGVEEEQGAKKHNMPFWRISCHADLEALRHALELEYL
Target sequence (Q15475 whole entry, looked up): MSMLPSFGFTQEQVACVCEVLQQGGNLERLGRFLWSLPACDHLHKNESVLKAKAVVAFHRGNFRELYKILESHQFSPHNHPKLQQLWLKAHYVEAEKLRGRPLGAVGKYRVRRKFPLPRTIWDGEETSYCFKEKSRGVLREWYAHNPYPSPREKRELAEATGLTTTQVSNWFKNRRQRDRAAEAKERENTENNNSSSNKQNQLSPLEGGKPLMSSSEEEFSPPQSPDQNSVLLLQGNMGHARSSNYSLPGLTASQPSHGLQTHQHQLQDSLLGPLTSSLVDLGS
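GST-Six1 + His-Eya2 (5X stock: 250/500 nM); Tris pH 8.0, 300 mM NaCl, 0.05% BSA, 0.02% Tween 20; GSH donor/Ni acceptor beads; 1 h 37 °C dark; AlphaScreen readout.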
Numbers without * were called inactive; ? = inconclusive; . = not tested or not shown; [ ] = remark or other dose.

Results follow in this order: PINK1 modulator	TRPML1 agonist	TRPML1 blocker	D2 potentiator	D2 agonist	Six1-Eya2 blk
> CCN(C(=O)CSc1nnc(-c2ccco2)n1CC)c1c(N)n(Cc2ccccc2)c(=O)[nH]c1=O
    -0.2%	0.1	3	-3	4.8	8
> Cc1cccc(CC(=O)N2CCN(C(=O)c3ccco3)CC2)c1
    0.1%	1.4	?	-5	-6.0	6
> CCCn1c2ccc(F)cc2c2nnc(NN)nc21
    6.6%	0.6	-5	-4	-6.4	-7
> O=C1NC(NS(=O)(=O)c2ccc(Cl)cc2)(C(F)(F)F)C(=O)N1CCc1ccccc1 (configuration not stated)
    -0.8%	.	.	-6	-4.0	1
> O=C(NC1CCCCCCC1)C1c2ccccc2C(=O)N1Cc1cccs1 (configuration not stated)
    2.5%	2.6	35	7	-1.7	7
> Cc1ccccc1N1CCN(C2CCCN(C(=O)c3csc(C(C)C)n3)C2)CC1 (configuration not stated)
    -0.8%	1.8	-11	-41	-3.6	-5
> Cc1cc(NC(=O)CSc2nnc(NCc3ccco3)s2)no1
    -0.7%	1.9	25	-2	0.8	6
> CN1C(=O)/C(=C\c2ccccc2F)Sc2ccc(C(=O)NC3CCN(Cc4ccccc4)CC3)cc21
    -0.8%	-0.1	-1	-57	-0.1	-1
> COc1ccc(CCC(=O)NCc2ccc3c(c2)CCN3C(=O)c2cccc(C)c2)cc1
    5.2%	1.4	0	.	.	.
> Cc1ccc(CNC(=O)C2CCC(=O)N2Cc2ccc(C)cc2)cc1 (configuration not stated)
    -2.6%	0.4	-24	-2	-4.1	4

Later entries:
Results follow in this order: PINK1 modulator	TRPML1 agonist	TRPML1 blocker	D2 potentiator	D2 agonist	Six1-Eya2 blk
> COc1ccc(Br)cc1/C=C\C(=O)NCc1cccnc1
    0.9%	1.8	-1	-15	-6.9	0
> CN(C)/C=C1\C(=O)N(C)N=C1C(F)(F)F
    -0.5%	-0.4	-8	-7	5.0	-4
> O=C(Nc1ccccc1Oc1cccnc1)C1CCCN(C/C=C/c2ccc(F)cc2)C1 (configuration not stated)
    2.5%	0.6	4	-34	-1.4	-2
> O=C(c1ccccc1)N1CCCCC1CCN1CCCCC1 (configuration not stated)
    0.6%	0.8	-10	.	.	.
> CCN(CC)C(=O)C1CCCN(Cc2ccc(N(C)C)cc2)C1 (configuration not stated)
    0.8%	-0.3	-9	-19	-3.6	-3
> CSc1ccc(S(=O)(=O)NCC(=O)OCC(=O)NC2(C#N)CCCCC2)cc1[N+](=O)[O-]
    -0.7%	1.1	-2	-12	-3.5	7
> Cc1nnc(SCc2nc3ccccc3nc2C)s1
    -1.6%	-0.3	-10	12	-1.6	2
> Brc1ccc(-c2nc(-c3ccccc3)no2)o1
    0.7%[38.3 µM]	1.6	14	5	0.8	21
> CN1C(=O)/C(=C/c2cccc(Cl)c2)Sc2ccc(C(=O)NCc3cccnc3)cc21
    1.5%	1.0	24	-20	-2.6	-2
> O=C(CSc1n[nH]c(-c2cccs2)n1)N1CCOCC1
    0.4%	-0.6	-18	-3	-0.4	11

The list goes on:
Results follow in this order: PINK1 modulator	TRPML1 agonist	TRPML1 blocker	D2 potentiator	D2 agonist	Six1-Eya2 blk
> CC(NS(=O)(=O)c1ccc(Br)cc1)C(c1cccs1)N1CCOCC1 (configuration not stated)
    -0.5%	0.1	-2	-2	2.8	1
> CCCCC(CC)C(=O)Nc1ccc(S(=O)(=O)Nc2nccs2)cc1 (configuration not stated)
    0.2%	0.5	16	-9	-2.3	-22
> CCOC(=O)C1=NNC(=O)C1
    0.9%	-0.3	1	-7	-1.8	2
> COCCN(C(=O)COC(=O)CSc1cc(C)ccc1C)c1c(N)n(Cc2ccccc2)c(=O)[nH]c1=O
    0.3%	-0.4	6	-9	-3.2	3
> CCO[C@H]1OC(C(=O)N2CCN(C)CC2)=C[C@@H](c2coc3ccccc3c2=O)[C@@H]1CCCO
    -0.1%	-0.6	-16	-3	0.0	-1
> Cc1ccc(C)c(NC(=O)CSc2nnc(-c3ccccc3)o2)c1
    2.1%	0.1	-4	-6	-5.2	4
> Cc1[nH]n2c(=O)cc(-c3ccccc3Cl)nc2c1-c1ccccc1
    0.2%	0.7	-11	.	.	.
> CCOc1nc(NCCN2CCOCC2)nc(Nc2ccc([N+](=O)[O-])cc2)n1
    0.1%	0.3	-9	-3	-3.6	-7
> COc1ccc(/C=C/C(=O)NC(C)(C)C)cc1S(=O)(=O)N1CCOCC1
    2.6%	1.3	-13	-20	5.7	-1
> O=[N+]([O-])c1ccc(N2CCN(c3nc(-c4ccc(Cl)cc4)cs3)CC2)cc1
    6.8%	0.6	3	-18	-0.2	0

Remaining list, next part:
Results follow in this order: PINK1 modulator	TRPML1 agonist	TRPML1 blocker	D2 potentiator	D2 agonist	Six1-Eya2 blk
> C=CCNC(=O)C(C)N1C(=O)c2ccccc2C1=O (configuration not stated)
    0.2%	0.4	-7	-2	-1.2	7
> O=C(O)CSc1nnc(-c2ccc(Cl)cc2Cl)n1-c1ccc(Cl)cc1
    -1.6%	0.0	37	-3	3.2	3
> Cc1cc(C(=O)N/N=C/c2ccc(-c3cccc(Br)c3)o2)n[nH]1
    8.8%	-1.0	14	-20	-0.3	-7
> COc1ccc(NS(=O)(=O)c2cccc(C(=O)NNC(=O)NCCCl)c2)cc1
    1.7%	0.2	44	-4	-1.8	4
> CSc1ccccc1OCc1cc(C(=O)NC2CCOC2)no1 (configuration not stated)
    0.6%	0.9	8	-5	-0.6	-2
> CCn1cc(/C=C(\NC(=O)c2ccccc2OC)C(=O)N2CCN(C)CC2)c2ccccc21
    -0.7%	0.2	-21	-15	-1.8	-1
> O=C(O)[C@H]1CCCC[C@H]1C(=O)Nc1ccc(S(=O)(=O)N2CCOCC2)cc1
    1.3%	-0.4	-13	-6	-2.5	4
> CCOC(=O)C1CCN(C(=O)CCC(=O)NCCc2ccc(Cl)cc2)CC1
    0.2%	0.1	-1	-3	4.3	-12
> O=C(NCc1ccccc1)c1ccc(CSc2ccccc2)o1
    1.3%	2.5	-15	-8	-5.6	6
> CC(C)Oc1ccc(/C=N/NC(=O)C2CCCN2S(=O)(=O)c2ccc(Cl)cc2)cc1 (configuration not stated)
    15%	2.8	75	-6	3.8	-13

Retrieved by compound from the list above:
Results follow in this order: PINK1 modulator	TRPML1 agonist	TRPML1 blocker	D2 potentiator	D2 agonist	Six1-Eya2 blk
> CC(C)Oc1ccc(/C=N/NC(=O)C2CCCN2S(=O)(=O)c2ccc(Cl)cc2)cc1 (configuration not stated)
    15%	2.8	75	-6	3.8	-13
> O=C(O)CSc1nnc(-c2ccc(Cl)cc2Cl)n1-c1ccc(Cl)cc1
    -1.6%	0.0	37	-3	3.2	3
> Cc1cc(C(=O)N/N=C/c2ccc(-c3cccc(Br)c3)o2)n[nH]1
    8.8%	-1.0	14	-20	-0.3	-7
> CCn1cc(/C=C(\NC(=O)c2ccccc2OC)C(=O)N2CCN(C)CC2)c2ccccc21
    -0.7%	0.2	-21	-15	-1.8	-1
> O=C(NCc1ccccc1)c1ccc(CSc2ccccc2)o1
    1.3%	2.5	-15	-8	-5.6	6
> CCOC(=O)C1CCN(C(=O)CCC(=O)NCCc2ccc(Cl)cc2)CC1
    0.2%	0.1	-1	-3	4.3	-12

New compounds follow:
Results follow in this order: PINK1 modulator	TRPML1 agonist	TRPML1 blocker	D2 potentiator	D2 agonist	Six1-Eya2 blk
> CC(/C=N/n1c(-c2ccncc2)n[nH]c1=S)=C\c1ccco1
    -0.9%	-0.8	18	-27	-6.6	-11
> Cc1ccc(NC(=O)c2cc(-c3ccc(C)o3)nc3ccccc23)cc1
    .	0.0	20	-19	-4.9	-13
> CCn1c(SCC(=O)N/N=C/C=C/c2ccccc2[N+](=O)[O-])nnc1-c1ccccc1
    -0.5%	1.1	4	-2	1.1	-17
> COc1ccccc1C(=O)N/C(=C\c1cn(S(=O)(=O)N(C)C)c2ccccc12)C(=O)NCCCn1ccnc1
    -4.3%	1.6	21	.	.	.
> CC(=O)N1CCN(S(=O)(=O)c2cccc(C(=O)NNC(=O)COc3c(C)cccc3C)c2)CC1
    -1.4%	0.8	1	-20	-2.5	-13
> O=S(=O)(Nc1cc(Cl)ccc1-n1cncn1)c1ccc(F)cc1
    -0.2%	-0.7	-21	10	-2.1	-1
> Cc1cc2c(cc1C)C(c1cccc([N+](=O)[O-])c1)CC(=O)N2 (configuration not stated)
    4.2%	1.8	1	-11	-4.5	11
> CC1=C(C(N)=O)C(c2ccccc2)n2nc(-c3cccc(C)c3)nc2N1 (configuration not stated)
    4.0%	0.0	25	-1	-0.1	0
> CCOC(=O)[C@]12CCCC=C1N(Cc1ccco1)C(=O)[C@H](CC(=O)NCc1cccs1)C2
    -0.9%	-1.1	.	.	.	0
> O=C(CCNS(=O)(=O)c1ccc(Br)cc1)NCC1CCCO1 (configuration not stated)
    0.2%	-0.1	2	-3	-3.7	5

Further compounds:
Results follow in this order: PINK1 modulator	TRPML1 agonist	TRPML1 blocker	D2 potentiator	D2 agonist	Six1-Eya2 blk
> CC(=O)Nc1ccc(S(=O)(=O)NNC(=O)c2cc3c4ccccc4n(C)c3s2)cc1
    2.5%	-0.3	-1	-3	-3.1	-6
> COc1cc(SC)ccc1C(=O)Nc1ccc2c(c1)OCO2
    0.2%	1.3	0	-22	-1.6	-11
> Cc1ccc(NC(=O)C2CCN(S(=O)(=O)c3ccccc3)CC2)cc1
    -0.4%	0.1	-24	2	-2.7	8
> C=CCC[C@H](Cc1ccc(F)cc1)C(=O)OC[C@H]1CCCN1C(=O)[C@@H](CC=C)CC(=O)NCCO
    1.7%	-0.7	-12	.	2.4	0
> Cc1cc(Nc2ccccc2O)nc(C)n1
    -0.8%	-0.4	17	.	.	.
> CCSc1ncc(Cl)c(C(=O)Nc2nnc(CC)s2)n1
    1.2%	0.2	4	.	.	.
> Cc1oc(-c2ccc(Cl)cc2)nc1CN1CCC(C(=O)N2CCc3ccccc3C2)CC1
    -4.8%	2.1	6	-9	-1.7	2
> COc1cc(C2C(C(N)=O)=C(C)Nc3nc(CCCO)nn32)cc(OC)c1OC (configuration not stated)
    0.4%	0.1	23	-3	0.9	-2
> COc1ccc(-n2c(COc3cccc4ccccc34)nnc2SCC#N)cc1
    -0.9%	-1.1	16	-8	-4.3	-11
> CCCCNC(=O)Nc1nc(SCC(=O)OCC)n[nH]1
    -0.8%	0.7	7	-1	0.3	1

Next part
Results follow in this order: PINK1 modulator	TRPML1 agonist	TRPML1 blocker	D2 potentiator	D2 agonist	Six1-Eya2 blk
> O=C(COc1ccccc1[N+](=O)[O-])NCC1(N2CCCCC2)CCCCC1
    1.1%	-0.2	-7	0	-1.8	1
> Cc1ccc(S(=O)(=O)c2c(Nc3cc(F)ccc3F)sc(C(=O)c3ccc(F)cc3)c2N)cc1
    6.5%	16	-14	.	.	.
> O=C(Cn1nnc(-c2ccc(CN3CCOCC3)cc2)n1)N(c1ccccc1)c1ccccc1
    2.6%	-0.2	13	2	1.3	-12
> Cc1cc(C(=O)NCCc2ccccc2)c2cc(F)ccc2n1
    3.2%	-0.5	-5	-21	-3.2	4
> CN(CC(=O)Nc1cccc(F)c1)C(=O)c1sccc1-c1ccccc1
    -2.1%	-0.3	-9	0	0.1	1
> CCNC(=O)COC(=O)c1sccc1C
    0.6%	-0.4	2	-2	-3.9	-3

Compound activity (PubChem)
